# Tg IFNy HTS: T. gondii growth inhibition under IFN-gamma. AID 1259416. activity change, negative = inhibition, %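 (about 20 µM by stock and volumes)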. hit rate 3.8% among 69,000. Toxoplasma gondii growth in IFN-gamma-treated host cells; active compounds read low; reference of the scale not given here;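 active means below -70%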;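 further: host cells are HeLa cells infected with Toxoplasma gondii; parasite growth read as luciferase light; one replicate is shown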
# The depositor's hits bear a star; & = joins results of further samples. Some of the compounds tested; rates above refer to the full screens.
structure | Tg IFNy HTS
CO[C@H]1CN(C)C(=O)c2cc(NC(=O)c3ccc(F)cc3)ccc2OC[C@H](C)N(C(=O)CC2CC2)C[C@@H]1C | 179
CCN(Cc1ccncc1)C(=O)CN(c1cccc(F)c1)S(C)(=O)=O | -4
Cc1ccccc1-c1ncc(CN2CCN(C)C(C(=O)O)C2)cn1 (stereo unspecified) | 4
CS(=O)(=O)Nc1nc(CC(=O)N[C@@H]2CCC(=O)N[C@H]2C2CC=CCC2)cs1 (stereo partly specified) | 24
O=C(c1cnccn1)N1CC[C@@H](c2ccc3c(c2)OCO3)[C@H](O)C1 | 0
COc1ccc(C(C)N2CC34C=CC(O3)C(C(=O)OCC(C)C)C4C2=O)cc1 (stereo unspecified) | 15
COc1ccccc1CNC(=O)CCC1N=C2c3ccccc3N=C(SCc3ccc(Cl)cc3)N2C1=O (stereo unspecified) | -16
N#C[C@@H]1[C@@H](c2ccccc2-c2cccc(F)c2)[C@H](CO)N1C(=O)CN1CCOCC1 | 1
CCOc1ccc(NC(=O)Cn2ncc3c(N4CCN(c5ccccn5)CC4)ncnc32)cc1 | 17
CC(=O)N1CCC(C(=O)NCC2(Cn3ccnc3)CC2)CC1 | 6

# Taken from above.
# COc1ccccc1CNC(=O)CCC1N=C2c3ccccc3N=C(SCc3ccc(Cl)cc3)N2C1=O (stereo unspecified) @ Tg IFNy HTS = -16
# CCOc1ccc(NC(=O)Cn2ncc3c(N4CCN(c5ccccn5)CC4)ncnc32)cc1 @ Tg IFNy HTS = 17
# COc1ccc(C(C)N2CC34C=CC(O3)C(C(=O)OCC(C)C)C4C2=O)cc1 (stereo unspecified) @ Tg IFNy HTS = 15
# CCN(Cc1ccncc1)C(=O)CN(c1cccc(F)c1)S(C)(=O)=O @ Tg IFNy HTS = -4
# O=C(c1cnccn1)N1CC[C@@H](c2ccc3c(c2)OCO3)[C@H](O)C1 @ Tg IFNy HTS = 0

# More entries follow:
structure | Tg IFNy HTS
N#C[C@@H]1[C@H](c2ccc(C3=CCCCC3)cc2)[C@H](CO)N1S(=O)(=O)c1ccccc1 | -26
CCn1ncnc1CN1CCC(CNS(C)(=O)=O)C1 (stereo unspecified) | 80
O=C(Cn1nnc(-c2cccs2)n1)NCCC1=CCCCC1 | -7
COc1cc(F)c(CN2CCCC2c2ccc(F)cc2)cc1OC (stereo unspecified) | 27
CN(C)Cc1cc(=O)n2c(n1)CN(Cc1nccs1)CCC2 | 3
Cc1nc2c(c(NC3CCN(S(=O)(=O)c4ccccc4)CC3)n1)CNC2 | 19
CC(C)c1cc(C2CCN(C(=O)[C@H]3CCCO3)CC2)[nH]n1 | 0
Cc1nc(-c2ccc(F)cc2)sc1CCNC(=O)c1cc2ccccc2oc1=O | 19
Cc1n[nH]c(C)c1Cc1nc(CN2CCN(C)CC2)no1 | 16
CCN1CCN(C2CCN(C(=O)CCc3nc(-c4cccs4)no3)CC2)CC1 | 6

# Carrying on:
structure | Tg IFNy HTS
CC1CCN(S(=O)(=O)c2ccc3c(c2)CCC(=O)N3CC(=O)NCc2ccc(F)cc2)CC1 | -54
O=C(c1cccnc1)N1CCC2(COCc3cnc(NCC4CC4)nc32)C1 (stereo unspecified) | -39
O=C(O)C(Cc1ccc(O)cc1)N1CCS(=O)(=O)CC1 (stereo unspecified) | -43
O=C(Nc1ccccc1-c1n[nH]c(=S)n1-c1ccccc1)c1ccccc1 | -2
COCCN1C[C@@H]2CCN(C(=O)c3cc(C)on3)CC[C@H]2S1(=O)=O | 24
Cn1cc(C2CC(=O)NC23CCN(S(C)(=O)=O)CC3)cn1 (stereo unspecified) | 165
CC(CNC(=O)c1cnon1)Oc1cccnc1 (stereo unspecified) | 1
Cc1nsc(NC(=O)NC(c2ccccn2)C(F)(F)F)n1 (stereo unspecified) | -1
CC(=O)c1cccc(-c2cc3c(n(C)c2=O)CCN(C(=O)c2ccc4[nH]c5c(c4c2)CCCC5)C3)c1 | -18
O=C(c1ccccc1)n1nnc2ccccc21 | 21

# More entries:
structure | Tg IFNy HTS
CNC(=O)[C@@H]1C[C@@H](N)CN1Cc1c(F)ccc(C)c1Cl | 1
CN1c2ccc(-c3ccccc3)cc2[C@H]2[C@H](CCN2C(=O)CC2CC2)[C@@H]1CO | -52
COCCNC[C@@H]1[C@@H](c2ccccc2)[C@@H](CO)N1c1nc(C)c(C)s1 | -17
O=C(CN1CCCC(O)(Cn2cnc3ccccc32)C1)Nc1ccc2c(c1)OCO2 (stereo unspecified) | 38
O=C(O)c1cnccn1 | 2
CN(c1c2c(nn1C)CCCC2)S(=O)(=O)c1ccc(Cl)cc1 | 13
O=C(Nc1cccc(Cl)c1)c1c(O)c2cccnc2n(-c2ccc(F)cc2)c1=O | 195
O=C(Nc1cnc2n1CCCC2)c1ccc(CN2CCCC2)o1 | 2
CCn1cncc1C(=O)NC(C)COc1ccc(OC)cc1 (stereo unspecified) | 16
CS(=O)(=O)NCCc1csc(-c2cccc(F)c2)n1 | 66

# (continued)
structure | Tg IFNy HTS
COc1ccc(OC)c(CNc2nc(-c3nnc(-c4cccc(C)c4)o3)nc3ccccc23)c1 | -93*
COc1cccc(C2c3nc[nH]c3CCN2Cc2cc(C(C)(C)C)n[nH]2)c1 (stereo unspecified) | -51
COCC(=O)NC1Cc2ccc(S(=O)(=O)NCCn3ccc(C)n3)cc2C1 (stereo unspecified) | 4
Cc1n[nH]c(C)c1CCCNC(=O)c1cc(=O)[nH]c2ccccc12 | -2
CC(C)c1cc(C(=O)NCCS(=O)(=O)N2CCCCC2C)nc2ncnn12 (stereo unspecified) | -1
CCN1CCn2c(-c3ccccc3)cnc2C12CCN(S(=O)(=O)c1ccccc1)CC2 | -16
CCN(CC)C(=O)CSc1nnc2nnc3cc(OC)ccc3n12 | -56
Cc1cnc(N2CCC3C2CCC(=O)N3CC2CCOCC2)nc1 (stereo unspecified) | 7
O[C@@H]1CN(c2ccc(-c3ccccc3)nn2)CC[C@H]1c1ccc2c(c1)OCO2 | 391
Cc1ccccc1C(=O)N1CCC2(CC1)Nc1ccc(C)c(C)c1-n1cccc12 | 32

# (more compounds)
structure | Tg IFNy HTS
COc1ccc(C[C@@H]2CCn3cc(nn3)COC[C@H](C)NC2=O)cc1 | 9
Cn1nc(C(=O)N2CCOCC2)c2c1CN(Cc1ccoc1)C2 | 1
CN(C)CCN1C2(CCN(C(=O)NC3CCCC3)C2)c2ccccc2S1(=O)=O (stereo unspecified) | -16
CS(=O)(=O)N1CCC(c2nnc3ccc(C(=O)C4CCC4)cn23)C1 (stereo unspecified) | -3
Cc1nnc(CCNC(=O)c2ccccc2C2CCNC2)s1 (stereo unspecified) | 5
Cc1ccc(N2CC3(CCN(Cc4nccn4C)C3)CC2=O)cc1C (stereo unspecified) | 3
Cc1cccc(-c2cc3nc(C)cc(=O)n3[nH]2)c1 | -21
Cc1cccc(-c2cn[nH]c2C2CCN(CC3CCOC3)CC2)c1 (stereo unspecified) | -1
CCCN(CCC)CCCNC(=O)C1=C(C)C(=O)OC12CCN(Cc1ccccc1)CC2 | -22
CN(C)CCOCc1cncc2c1CCN(Cc1cccs1)C2 | 26

# The closing 6 compounds of the section above are carried over, then new ones follow:
structure | Tg IFNy HTS
Cc1nnc(CCNC(=O)c2ccccc2C2CCNC2)s1 (stereo unspecified) | 5
Cc1ccc(N2CC3(CCN(Cc4nccn4C)C3)CC2=O)cc1C (stereo unspecified) | 3
Cc1cccc(-c2cc3nc(C)cc(=O)n3[nH]2)c1 | -21
Cc1cccc(-c2cn[nH]c2C2CCN(CC3CCOC3)CC2)c1 (stereo unspecified) | -1
CCCN(CCC)CCCNC(=O)C1=C(C)C(=O)OC12CCN(Cc1ccccc1)CC2 | -22
CN(C)CCOCc1cncc2c1CCN(Cc1cccs1)C2 | 26
COc1ccc(OC)c(-c2noc(CN(Cc3ccccc3F)S(C)(=O)=O)n2)c1 | 13
O=C(c1cccnc1)N1CCCC(CCc2ccnc(Nc3cnccn3)c2)C1 (stereo unspecified) | 15
COc1ccc(C(=O)N2CCC3(CC2)Nc2ccccc2-n2cccc23)cc1OC | 25
COc1cccc(OC)c1C(=O)NCCc1sc(-c2ccc(Cl)cc2)nc1C | 7
Cc1ccc(C(=O)N2CCN(c3nc(C)nc4sc5c(c34)CCCC5)CC2)cc1 | -96*
Fc1cccnc1N1CCOCC2(CCCN(Cc3ccncc3)C2)C1 (stereo unspecified) | -13
O=C(c1cc(=O)n(-c2ccccc2)[nH]1)N1CCCC(Nc2ccc(F)cc2)C1 (stereo unspecified) | 354
CN1CCCCC(C2CCN(CC(=O)N3CCN(c4ccc(F)cc4)CC3)CC2)C1=O (stereo unspecified) | -16
NS(=O)(=O)c1cc2c(cc1Cl)NC=NS2(=O)=O | 10&-1
CN1CC[C@@]2(CN(C(=O)c3cccn3C)C[C@H]2c2ccccc2)C1=O | -23

# Following part:
structure | Tg IFNy HTS
CCc1ncc2c(n1)CN(C(=O)CSc1ncn[nH]1)C2 | -10
COc1cc(C2NCCc3c2[nH]c2ccccc32)ccc1OC(C)C (stereo unspecified) | 12
CCOC(=O)c1nc(NCc2ccc(C)cc2)c2ccccc2n1 | 7
CCCc1nc(C)cc(-c2ccc(OC)nc2)n1 | 18
COc1ccc(N2C(=O)CSC2=S)cc1 | 17
O=C(c1ccc(F)cc1)N1CC(=O)N2[C@H](CO)[C@@H](c3ccc(C#CCC4CCCC4)cc3)[C@H]2C1 | -32
O=C(CC1N=C2c3ccccc3N=C(SCc3cccc(Cl)c3)N2C1=O)NC1CCCCC1 (stereo unspecified) | -46
CN(C)[C@@H]1C[C@@H](CO)N(C(=O)c2[nH]nc(N)c2-c2ccccc2)C1 | -3
Cc1c(Nc2nc3nonc3nc2Nc2cccc(Cl)c2)c(=O)n(-c2ccccc2)n1C | -24
COc1cccc(NC(=O)Cn2ncc3c(N4CCCC4)ncnc32)c1 | -4

# Continued:
structure | Tg IFNy HTS
Cc1ccc(NC(=O)Nc2ccc(-c3nc(-c4ccccc4)co3)cc2)cc1Cl | 24
COc1ccc(C(=O)NCCNc2nc(-c3ccncc3)cc3ncccc23)cc1OC | 15
CCCNC(=O)N1[C@H](CO)[C@@H](c2ccc(-c3ccccc3F)cc2)[C@@H]1C#N | -40
O=C(C[C@H]1CC[C@H]2[C@@H](COC[C@@H](O)CN2C(=O)c2cc(Cl)cc(Cl)c2)O1)N1CCc2ccccc2C1 | -41
Cc1ccc(-c2coc(-c3ccc(NC(=O)COc4ccc(F)cc4)cc3)n2)cc1 | -41
C[C@H](CO)N1C[C@H](C)[C@@H](CN(C)C(=O)Nc2ccc3c(c2)OCO3)Oc2ccc(NC(=O)Cn3cnnn3)cc2C1=O | 14
CCCC(=O)N1CC2(CN(Cc3nccs3)C2)c2c([nH]c3cc(OC)ccc23)[C@H]1CO | -15
Cc1noc(C)c1NC(=O)Nc1ccc2c(c1)C(=O)N([C@@H](C)CO)C[C@H](C)[C@H](CN(C)Cc1ccc3c(c1)OCO3)OCCCC[C@@H](C)O2 | 225
CS(=O)(=O)c1noc(-c2cccs2)c1C#N | -23
O=C(CN=C1NS(=O)(=O)c2ccccc21)NCc1nnc2n1CCCCC2 | 1

# (list continues)
structure | Tg IFNy HTS
Cc1cc(OCc2nc3ccccc3[nH]2)ccc1C(C)C | -87*
Cc1cc2c(c(Sc3ccc(Cl)cc3)n1)C(=O)NC2=O | 12
COCC(=O)N1CC[C@@H]2[C@@H](CO)N(C)c3ccc(-c4cccc(F)c4)cc3[C@@H]21 | 22
CC(c1nncn1C)n1cc(-c2ccc3c(c2)Cc2ccccc2-3)nn1 (stereo unspecified) | 68
CCn1c(C2CCN(Cc3cccn3-c3cccnc3)CC2)n[nH]c1=O | 6
CS(=O)(=O)N1CC[C@@H]2[C@H]1CCN2C(=O)Cc1cccs1 | -2
CO[C@@H](CN(C)Cc1ccc2c(c1)OCO2)[C@@H](C)CN(C(=O)c1ccccc1)[C@H](C)CO | -44
CC(C)n1cnc2c(-c3ccccc3)nc(C3CCN(S(C)(=O)=O)CC3)cc21 | -11
CCc1nc2c(nnn2Cc2ccc(F)cc2)c2nnc(-c3ccc(OC)cc3)n12 | -1
Cc1noc(C)c1S(=O)(=O)N(C)C[C@@H]1OCc2ccccc2-c2c(n(C)c3ccccc23)C(=O)N([C@@H](C)CO)C[C@@H]1C | 58

# Other records.
structure | Tg IFNy HTS
COc1cccc(NC(=O)c2cc(-c3cnc(N(C)C)nc3)cn2CC2CC2)c1 | 5
Cc1cnc(C(=O)N2CCn3cc(CN(C)C)nc3C2)cn1 | 2
CCS(=O)(=O)N1C[C@@H]2CN(Cc3ccoc3)CCO[C@H]2C1 | -12
COc1ccc(CN2CCC(O)(c3ccccc3F)CC2)cc1Cn1ccnc1C | -37
CCS(=O)(=O)N1C[C@H](OCc2ccccn2)[C@@H]2COC[C@@H]21 | 4
COc1ccccc1C(=O)N1CCC2(CC1)NC(=O)c1cc(C)ccc1N2C | 55
COc1ccc(S(=O)(=O)Nc2ccc3c(c2)C(=O)N([C@H](C)CO)C[C@H](C)[C@@H](CN(C)S(=O)(=O)c2ccc(Cl)cc2)OCCCC[C@H](C)O3)cc1 | -113*
Cc1ccc2[nH]c(C(=O)O)c(CN3CCCC4(CCNCC4)CC3)c2c1 | 14
COc1ccccc1NC(=O)C(=O)NCCc1sc(-c2cccc(F)c2)nc1C | 19
CCc1ccccc1NC(=O)N1CCn2cnc(COCC3CC3)c2C1 | -9

# (cont.)
structure | Tg IFNy HTS
CCn1cncc1Cn1cnc(-c2ccccc2)c1-c1cccc(C)n1 | 3
c1ccc(-c2nc(-c3ccccc3)n(CC3CCCCC3)n2)cc1 | -4
COc1cc(NC(=O)N2CCC(c3nc(C(=O)N(C)C)c(C)o3)CC2)cc(OC)c1 | 110
Fc1cccc(N2CCC3(CC2)CC(c2cccnc2)CO3)c1 (stereo unspecified) | 0
Cc1nc(C2CCCNC2)cc(N(C)Cc2cccc3cnccc23)n1 (stereo unspecified) | -14
COc1ccc(N)cc1N1CCCCS1(=O)=O | -2
C=CCN(Cc1ccc(F)cc1)Cc1ccc(OC)c(O)c1 | -2
Cc1[nH]cnc1-c1nccn1-c1ccc2c(c1)OCO2 | 16
C[C@@H]1CN([C@H](C)CO)C(=O)c2cc(C3=CCCC3)cnc2O[C@@H]1CN(C)C(=O)Nc1ccc(C(F)(F)F)cc1 | -48
Cc1cccc(N2CCN(C(c3ccccc3)c3nnnn3Cc3ccco3)CC2)c1C (stereo unspecified) | -13
Cc1nccn1CC1CCc2c(c3ccccc3n2C)C1=O (stereo unspecified) | 11
OCCOc1ccccc1-c1nccn1-c1ccc2c(c1)CCC2 | -3
